Compound activity as filed in PubChem BioAssay.
Rango-impB inh – inhibitors of Rango-importin beta complex formation; 0.031% of 340,000 active; Potency, µM (titrated, usually from 92.2 µM), for the others: top-dose inhibition of complex formation; Rango CFP/YFP FRET sensor + importin beta, 45 min; AID 540263; active = rising FRET ratio curve, often small or poorly fitted; inconclusive = mostly compound fluorescence or quenching in the first reads; inactive = flat curves in all reads;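 also: potency is read from the fitted curve at half-maximal effect; 0% = DMSO wells and 100% = buffer wells lacking importin beta; nearly all actives have a fitted effect of over 15% in size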
Target sequence (Q14974 whole entry, looked up): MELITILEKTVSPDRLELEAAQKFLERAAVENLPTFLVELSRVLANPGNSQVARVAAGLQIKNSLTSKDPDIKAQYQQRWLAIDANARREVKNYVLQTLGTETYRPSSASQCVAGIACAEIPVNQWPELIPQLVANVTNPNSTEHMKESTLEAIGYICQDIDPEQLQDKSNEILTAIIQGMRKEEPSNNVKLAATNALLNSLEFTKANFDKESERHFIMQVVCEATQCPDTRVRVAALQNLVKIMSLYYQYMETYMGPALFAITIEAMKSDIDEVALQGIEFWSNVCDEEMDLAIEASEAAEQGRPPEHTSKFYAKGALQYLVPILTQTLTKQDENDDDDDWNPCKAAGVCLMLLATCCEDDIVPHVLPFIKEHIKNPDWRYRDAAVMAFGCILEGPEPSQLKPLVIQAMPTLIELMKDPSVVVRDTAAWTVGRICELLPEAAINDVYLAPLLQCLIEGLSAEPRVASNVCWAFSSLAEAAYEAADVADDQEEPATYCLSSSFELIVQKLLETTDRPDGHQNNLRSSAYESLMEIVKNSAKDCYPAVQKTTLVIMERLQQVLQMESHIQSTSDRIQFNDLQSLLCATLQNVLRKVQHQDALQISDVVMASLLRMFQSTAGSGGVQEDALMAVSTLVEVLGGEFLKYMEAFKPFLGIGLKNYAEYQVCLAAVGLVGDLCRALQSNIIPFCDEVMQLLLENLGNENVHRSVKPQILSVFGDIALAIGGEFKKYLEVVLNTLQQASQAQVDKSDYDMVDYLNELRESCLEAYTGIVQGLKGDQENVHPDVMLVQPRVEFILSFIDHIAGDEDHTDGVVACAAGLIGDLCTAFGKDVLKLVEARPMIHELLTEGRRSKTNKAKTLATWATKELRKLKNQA
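Inhibition scored from the CFP 486 nm/YFP 530 nm FRET ratio 45 min after adding 0.125 microM importin beta to 50 nM Rango biosensor preincubated 5 min with compound (room temperature, PBS with DTT, Tween-20, BSA). No-importin wells as positive control.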
GLA inh pH 4.5 – blocks human alpha-galactosidase A at pH 4.5 | activity change, negative = inhibition, % at 105 µM | P06280 | purified enzyme, 4-MU-alpha-Gal fluorescence, pH 4.5 | 230,000 tested, under 10 active | AID 1467; inconclusive = small, poorly fitted or top-dose-only inhibition, or a rising curve; inactive = flat fitted curve, though single readings scatter; no compound was filed as active;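 also: 0% = full activity with enzyme and -100% = basal without enzyme; dose as in the result columns while the protocol names 77 µM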
miR-21 FLuc – raises the signal of a miR-21 reporter | Potency, µM (series often up to 38.3 µM), without a hit: at the highest dose reporter change, positive = more light | 340,000 tested, under 10 active | AID 2288 | HeLa miR-21 FLuc reporter, luciferase, 48 h; active = well fitted rising curve with a large enough effect; inconclusive = small, poorly fitted or top-dose-only effect; inactive = no such curve, though single readings can be large or run the other way;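 also: % of control where 0% means no effect; miR-21 action dims this reporter so a rising signal means less miR-21 action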
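Luminescence from a firefly luciferase reporter carrying a miR-21 binding site downstream, stably expressed under a CMV promoter in HeLa cells that make miR-21 endogenously, reports miRNA modulation after 48 h compound exposure up to approximately 40uM final.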
Rango dissoc inh – inhibition of RanGTP-driven Rango-importin beta dissociation | AID 540253 | Potency, µM (top dose mostly 46.1 µM), for inactives: at the top dose activity change, negative = inhibition | O95149+P62826 | 0.071% of 340,000 active | Biochemical FRET Rango-importin beta, RanGTP-induced dissociation; active means falling FRET ratio curve, often poorly fitted, with flat reads before Ran was added; inconclusive means other falling curves, or compound fluorescence or quenching; inactive means flat or rising ratio curve;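 also: potency is read from the fitted curve at half-maximal effect; % of control where 0% means no effect; nearly all actives have a fitted effect of over 45% in size; -100% = wells without RanGTP and RCC1; the record marks most hits as doubtful in a second field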
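Quantitative HTS using a FRET biosensor: 0.1 uM Rango, 0.25 uM importin beta, 0.6 uM Ran, 2 mM GTP, 0.2 uM RCC1 final, PBS with DTT, Tween-20 and BSA. Post-read taken 45 min after Ran addition.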
* marks the source's active call; other numbers are inactive results; ? = inconclusive; . = no result given; & = joins results of further samples. These rows are one share of the data. The share of hits here may be higher or lower than overall.

SMILES | Rango-impB inh | GLA inh pH 4.5 | miR-21 FLuc | Rango dissoc inh
CCn1ccnc1CN1CCc2c([nH]c3ccccc23)C1CC(C)C (stereo not given) | -1.4% | -10 | 12% | -7%
COc1cc2c(cc1OC)CN(CC(=O)Nc1ccc(F)cc1)CC2 | ? | . | 2% | -21%
COc1ccccc1C(=O)NC(CCSC)C(=O)NNC(=O)c1ccccc1C (stereo not given) | 1.5% | . | . | 13%
COCC1CCCN(Cc2cn(-c3ccccc3F)nc2-c2cc(C)sc2C)C1 (stereo not given) | -2.9% | -7 | 0% | 1%
O=C(NCCc1ccccc1)C1CCN(S(=O)(=O)c2cccnc2)CC1 | 1.4% | 4 | -12% | 8%
CCOC(=O)c1cc(-c2ccc(C#N)cc2)nc2c1c(C)nn2CCC#N | 1.0% | 22 | -4% | -13%
N#Cc1cnc2cc(-c3ccccc3)nn2c1N | 4.1% | 3 | -45% | 11%
O=C(Nc1ccc2nc(C3CC3)n(Cc3ccccc3)c(=O)c2c1)C1CC1 | 0.6% | 6 | -27% | 4%
Cc1ccc(OCC(=O)Nc2cc(C(=O)O)cc(C(=O)O)c2)cc1C | 0.2% | -2 | -1% | 12%
CCc1cc2c(=O)n(Cc3ccco3)c(SCC(=O)NC3CCS(=O)(=O)C3)nc2s1 (stereo not given) | -3.6% | 1 | 3% | 5%
CCOC(=O)c1nc2c(ccc3ccccc32)cc1C | -0.4% | 4 | -34% | -4%
COc1ccc(CCCC(=O)Nc2ccc(F)cc2)cc1 | -1.4% | 10 | -8% | 11%
NC(=O)CNC(=O)c1cccc(Cl)c1 | 1.5% | -3 | 0% | 8%
CCC(=O)N1CCc2cc(S(=O)(=O)NCCC(=O)Nc3ccccc3C)ccc21 | -4.2% | -11 | -11% | -7%
C=C(C)c1cccc(C(C)(C)NC(=O)Nc2ccc(OC)cc2)c1 | -2.0% | -1 | -2% | -7%
O=C(Nc1ccccc1C(=O)O)c1cccc(NC(=O)c2ccccc2Br)c1 | -1.4% | . | 4% | 0%
CC1CCN(CCNC(=S)Nc2ccc(Cl)cc2)CC1 | 1.3% | 6 | -2% | -12%
CSc1ncc(Cl)c(C(=O)Nc2c(C)cccc2C)n1 | 1.1% | . | -7% | 1%
COCC(=O)NC1CCN(C(=O)NCc2ccccc2)CC1 | 8.9% | 0 | 0% | -9%
CCCc1ncc(C(O)c2ccc(OC)cc2)n1C (stereo not given) | -6.2% | 7 | -1% | 20%
Cc1cc(/C=N/Nc2nc(N)ncc2[N+](=O)[O-])c(C)n1-c1cccc(C(F)(F)F)c1 | . | 5 | -43% | .
O=C(CN1CCCCC1)NNc1nc(-c2ccccc2)c2cc(Cl)ccc2n1 | -3.4% | 4 | 0% | 0%
Cc1ccc(S(=O)(=O)N(C)c2nonc2C)cc1 | 1.3% | -4 | 2% | -3%
Cc1nc(NC(=O)CCl)sc1C(=O)N(C)C | -0.4% | -3 | 12% | -2%
CCCN(C(=O)Cn1ncc2c([nH]c3ccccc32)c1=O)c1ccccc1C | -0.4% | . | -2% | 11%
CC(=O)c1sc(NC(=O)CCS(=O)(=O)c2ccc(C)cc2)nc1C | 3.3% | . | . | 11%
O=C(CNC(=O)c1ccccc1)OC1CCCCC1 | -0.8% | 6 | -44% | -13%
Cc1ccc(S(=O)(=O)N2C(=O)CCC2C(=O)N2CCN(C)CC2)cc1 (stereo not given) | ? | 9 | -7% | -17%
O=C(CS(=O)c1ccc(F)cc1)Nc1ccccc1Cl (stereo not given) | -2.8% | 3 | -14% | 6%
Cc1ccc(S(=O)(=O)SCCCSS(=O)(=O)c2ccc(C)cc2)cc1 | -1.0% | . | . | -4%

3 records picked at random from the list so far:
SMILES | Rango-impB inh | GLA inh pH 4.5 | miR-21 FLuc | Rango dissoc inh
N#Cc1cnc2cc(-c3ccccc3)nn2c1N | 4.1% | 3 | -45% | 11%
C=C(C)c1cccc(C(C)(C)NC(=O)Nc2ccc(OC)cc2)c1 | -2.0% | -1 | -2% | -7%
O=C(CN1CCCCC1)NNc1nc(-c2ccccc2)c2cc(Cl)ccc2n1 | -3.4% | 4 | 0% | 0%

(next part)
SMILES | Rango-impB inh | GLA inh pH 4.5 | miR-21 FLuc | Rango dissoc inh
NC1=NN(c2cccc(C(=O)O)c2)C(=O)C1 | 5.1% | -13 | -17% | 18%
COc1cc(C(O)P(=O)(OCC(C)C)c2ccc(N(C)C)cc2)cc(OC)c1OC (stereo not given) | 2.5% | -4 | 0% | 10%
CC(C)COc1ccc(C(=O)N/C(=C/c2cccc([N+](=O)[O-])c2)C(=O)O)cc1 | -0.4% | -16 | 0% | -15%
COc1cc(S(=O)(=O)N2CCOCC2)ccc1NC(=O)COC(=O)CC12CC3CC(CC(C3)C1)C2 | -7.8% | -6 | -6% | -2%
COC(=O)CS(=O)(=O)c1ccc(C)cc1 | -1.5% | -4 | 1% | 0%
COc1ccccc1N(CC(=O)Nc1ccc(C)cc1Cl)S(=O)(=O)c1cccs1 | 0.0% | . | . | 4%
Cc1cc(C)nc(N/N=C/c2c[nH]c3ccccc23)n1 | -4.0% | 1 | 0% | 10%
O=C(NNC(=O)c1cc2ccccc2o1)c1ccc(F)cc1 | 1.5% | . | . | 19%
CC(=O)N1CCC(N(CCN2CCOCC2)C(=S)Nc2c(C)cccc2C)CC1 | 3.4% | 4 | -4% | -10%
O=[N+]([O-])c1ccccc1S(=O)(=O)NC1CCCCCCC1 | -2.6% | . | 5% | 1%
O=C(COc1cccc2c1CCN(Cc1ccccc1F)C2=O)N1CCCCC1 | -4.4% | -10 | 19% | -13%
CC1CCN(CC(O)COC2CC(C)CCC2C(C)C)CC1 (stereo not given) | -0.5% | -12 | 6% | 1%
COc1ccc(/C(C)=N/Nc2nc3ccccc3nc2C)cc1OC | 5.2% | -2 | -51% | -9%
O=C(Nc1ccc2c(c1)CCC2)C1CCCO1 (stereo not given) | 1.9% | -2 | -12% | -18%
COc1ccc(C)cc1N(CC(=O)NCCSCc1cccc(Cl)c1)S(C)(=O)=O | -0.8% | . | 17% | 1%
Cn1nc(-c2ccccc2)c(CSc2cccc(Cl)c2)c1Cl | -1.4% | 1 | 24% | 0%
Cc1cc(C(F)(F)F)n(-c2ccc(N)cc2)n1 | 0.1% | -2 | 4% | -2%
C=CCn1c(O)c(N=Nc2ccccc2O)c2ccccc21 | ? | . | . | ?
Cc1onc(-c2c(Cl)cccc2Cl)c1NC(=O)N1CCSCC1 | -2.2% | 8 | -12% | 12%
O=C1OC(/C(=C\NCc2ccccc2)[N+](=O)[O-])c2ccccc21 (stereo not given) | 1.8% | 8 | 1% | 0%
Oc1ccc2c(ccc3[nH]cnc32)c1 | 4.2% | -6 | -14% | 17%
CCCNC(=O)C1(CC2CC(c3ccccc3)=NO2)CCN(C(=O)c2cc(OCC)c(OCC)c(OCC)c2)CC1 (stereo not given) | 3.1% | . | . | 3%
CN(C)c1ncccc1-c1nc2ccccc2s1 | -0.2% | 12 | -11% | -2%
COc1ccc(/C=N/OCC(=O)Nc2nc3ccccc3s2)cc1OC | -2.7% | 2 | -36% | -3%
CN(Cc1ccccc1)C(=O)COC(=O)CNS(=O)(=O)c1ccc2ccccc2c1 | 4.4% | . | . | 28%
COc1ccc(-c2cc3c(=O)n(CC(=O)NCCCN4CCC(N5CCCCC5)CC4)ncn3n2)cc1 | -3.4% | . | -31% | 43%
CN1CCN(C(=O)CN2C(=O)NC(C)(c3ccc4ccccc4c3)C2=O)CC1 (stereo not given) | -0.5% | . | . | -15%
O=C(Nc1cccc(F)c1)C1CCN(C(=O)c2ccc(Br)cc2)CC1 | -5.2% | -12 | -1% | 12%
COC(=O)c1cc(OC)c(OC)cc1NC(=O)C1CCCO1 (stereo not given) | 0.2% | -7 | -28% | -9%
Nc1nnc(SCC(=O)Nc2cc(S(=O)(=O)N3CCOCC3)ccc2N2CCCC2)s1 | 0.4% | . | . | 19%
CS(=O)(=O)c1ccccc1C(=O)Nc1cccc(-c2nc3ccccc3o2)c1 | -3.8% | . | 4% | 7%
COc1ccc(/C(C)=N\Nc2nc(-c3ccc(Cl)cc3)cc(C(F)(F)F)n2)cc1OC | 0.6% | -1 | -11% | 12%
CN(C[C@H](c1ccccc1)N(C[C@H](Cc1ccccc1)N(CCc1ccccc1)N=O)N=O)N=O | -0.2% | -14 | 3% | -2%
Cc1cc(C(=O)N/N=C/c2ccc(C)s2)n[nH]1 | 0.1% | . | -58% | -2%
C=CCNC(=S)Nc1c(C(=O)OC)[nH]c2cc(OC)ccc12 | -0.4% | 9 | -57% | -2%
CCOC(=O)C1=C(C)NC(C)=C(C(=O)OC)C1c1cccc([N+](=O)[O-])c1 (stereo not given) | 5.4% | -6&1&-4 | 0%&2% | -20%
O=C(CN1CCCCCCC1)N/N=C/c1ccc([N+](=O)[O-])o1 | 5.5% | . | ? | -1%
COc1ccc2nc(NCCCO)[nH]c2c1 | -3.4% | 10 | -7% | -20%
Cc1ccccc1CSc1nnc([C@@H]2CCCN2)o1 | 0.4% | -10 | -18% | -8%
Cc1cccc(N2CCN(S(=O)(=O)c3ccc(Cl)nc3)CC2C)c1 (stereo not given) | -1.7% | . | . | 4%
O=C(NCC(O)c1ccc([N+](=O)[O-])cc1)C1CCCCC1 (stereo not given) | 2.0% | 0 | 1% | -4%
Cc1c(OC(C)C(=O)NCCCN2CCOCC2)ccc2c3c(c(=O)oc12)CCC3 (stereo not given) | 3.6% | . | -3% | 6%
COc1ccc2c(c1OC)CN(C)CCc1cc3c(cc1C(O)C2)OCO3 (stereo not given) | 2.3% | -3 | -1% | -4%
Cc1nonc1NC(=O)CSc1nc(C23CC4CC(CC(C4)C2)C3)nc2ccccc12 | -1.6% | -9 | -2% | 8%
COc1ccccc1C1C2=C(COC2=O)Nc2cc3c(cc21)OCO3 (stereo not given) | 0.2% | 0 | 16% | -2%

Limited to Rango-impB inh, Rango dissoc inh and GLA inh pH 4.5, for some of the entries so far:
canonical_smiles | Rango-impB inh | Rango dissoc inh | GLA inh pH 4.5
CS(=O)(=O)c1ccccc1C(=O)Nc1cccc(-c2nc3ccccc3o2)c1 | -3.8% | 7% | .
COc1ccc(/C(C)=N\Nc2nc(-c3ccc(Cl)cc3)cc(C(F)(F)F)n2)cc1OC | 0.6% | 12% | -1
CN(C[C@H](c1ccccc1)N(C[C@H](Cc1ccccc1)N(CCc1ccccc1)N=O)N=O)N=O | -0.2% | -2% | -14

(cont.)
SMILES | Rango-impB inh | GLA inh pH 4.5 | miR-21 FLuc | Rango dissoc inh
CCOc1ccc(N(CC(=O)Nc2ccc(OC)cc2)S(=O)(=O)c2c(C)[nH]c(=O)[nH]c2=O)cc1 | 0.6% | 2 | -1% | -23%
Nc1cccc2c1C(=O)N(c1ccccc1)C2=O | ? | . | . | ?
CC1CCN(C(=O)C2CCN(S(=O)(=O)c3cc(Cl)ccc3Cl)CC2)CC1 | 0.5% | 1 | -2% | 0%
COC(CNc1nc(SC)nc2sc3c(c12)CCN(C)C3)OC | ? | . | -6% | ?
Cc1ccc(C(=O)N/N=C\c2ccc[nH]2)cn1 | -0.5% | 10 | -14% | 9%
COc1nc(N(C)C)nc(N2CC(=O)N(CCNS(=O)(=O)c3ccc(C)cc3)C2=N)n1 | -3.5% | -2 | 0% | 9%
CNCCCNCc1ccc(SC)cc1 | . | 9 | -1% | .
Nc1ccc2nc(SCC(=O)c3ccccc3)sc2c1 | -7.7% | . | -38% | 20%

Three structures from above, ordered by molecular weight, ascending.
SMILES | Rango-impB inh | GLA inh pH 4.5 | miR-21 FLuc | Rango dissoc inh
Nc1cccc2c1C(=O)N(c1ccccc1)C2=O | ? | . | . | ?
CC1CCN(C(=O)C2CCN(S(=O)(=O)c3cc(Cl)ccc3Cl)CC2)CC1 | 0.5% | 1 | -2% | 0%
COc1nc(N(C)C)nc(N2CC(=O)N(CCNS(=O)(=O)c3ccc(C)cc3)C2=N)n1 | -3.5% | -2 | 0% | 9%

Compound profiles, as listed above. Screens in order: Rango-impB inh, GLA inh pH 4.5, miR-21 FLuc, Rango dissoc inh
`COC(CNc1nc(SC)nc2sc3c(c12)CCN(C)C3)OC` is entered as ?, ., -6%, ?
`Nc1ccc2nc(SCC(=O)c3ccccc3)sc2c1` is entered as -7.7%, ., -38%, 20%
